Source: PubChem (National Center for Advancing Translational Sciences (NCATS))
Sfp inh: Sfp phosphopantetheinyl transferase inhibition; AID 1490; Q9F4F7; 310,000 tested, 3.5% active; Biochemical Sfp PPTase activity, qHTS; Potency, µM, for inactives: max response, negative = inhibition, hits mostly inhibitors; active means well fitted inhibition curve with a large enough effect; inconclusive means small, poorly fitted or top-dose-only effect, or another doubt; inactive means no such curve, though single readings can be large or run the other way;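 further: the enzyme is Sfp with the accession as filed and its product quenches rhodamine fluorescence; potency means the concentration at half of the fitted maximal effect; 0% = enzyme reaction without inhibitor and -100% = no enzyme wells; top concentration of the series not given in the record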
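Compounds were incubated with enzyme (final 15 nM) for 15 min at room temperature before substrate addition started the reaction. Fluorescence at 525 nm excitation, 598 nm emission was recorded immediately and after 30 minutes.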
ClpP mod: qHTS Assay for Activators of ClpP; ATP-dependent Clp protease proteolytic subunit (Bacillus subtilis (strain 168)), P80244; purified B. subtilis ClpP, FRET peptide cleavage, 20 min; Potency, µM (doses to about 57.5 µM), for inactives: top-dose activity change, negative = active; 340,000 tested, 1.9% active; active = well fitted falling curve with a large enough effect; inconclusive = small, poorly fitted or top-dose-only effect; inactive = no such curve, though single readings can be large or run the other way; further: potency means the concentration at half of the fitted maximal effect; the source files actives as falling curves though it sought activators and does not explain the sign; nearly all actives have a fitted effect of over 65% in size; many hits overshoot -100%
Target sequence (P80244 whole entry, looked up): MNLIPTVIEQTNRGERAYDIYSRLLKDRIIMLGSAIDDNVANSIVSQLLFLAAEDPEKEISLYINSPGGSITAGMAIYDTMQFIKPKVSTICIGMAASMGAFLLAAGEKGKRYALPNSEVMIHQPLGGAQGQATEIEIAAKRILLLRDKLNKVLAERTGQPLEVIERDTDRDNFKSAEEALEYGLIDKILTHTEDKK
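FRET quenching reversal measured ClpP activation: 10 microg/mL B. subtilis ClpP at pH 8 with the FRET-FV decapeptide, read at 430 nm after 320 nm excitation. The 20-min minus 0-min signal was scaled between DMSO/no-enzyme wells and ADEP (5.8 microM final).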
D2 agonist: agonists of human D2 dopamine receptor (beta-arrestin); DiscoveRx PathHunter D2 beta-arrestin, luminescence, 90 min; 100% = 57 uM dopamine signal; activation, % (no concentration beside the values); 360,000 tested, 0.084% active; AID 624465; in the data active = activation above about 40%; inconclusive = about 15% to 40%; inactive = below about 15%; further: compound concentration not given in the record; the text of the record calls up to 30% inactive
Target sequence (P14416 whole entry, looked up): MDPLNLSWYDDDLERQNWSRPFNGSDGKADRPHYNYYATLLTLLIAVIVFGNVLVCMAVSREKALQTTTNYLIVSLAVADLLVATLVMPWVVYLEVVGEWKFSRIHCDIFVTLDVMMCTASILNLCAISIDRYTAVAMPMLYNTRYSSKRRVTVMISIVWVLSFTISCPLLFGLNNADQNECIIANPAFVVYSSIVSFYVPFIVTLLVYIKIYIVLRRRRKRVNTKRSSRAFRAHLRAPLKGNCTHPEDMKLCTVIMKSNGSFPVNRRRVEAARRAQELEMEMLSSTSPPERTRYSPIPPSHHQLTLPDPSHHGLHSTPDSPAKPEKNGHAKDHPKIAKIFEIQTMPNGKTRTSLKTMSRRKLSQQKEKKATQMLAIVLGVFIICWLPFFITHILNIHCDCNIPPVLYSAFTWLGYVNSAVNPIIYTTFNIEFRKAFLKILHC
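Agonist mode: compounds alone added to overnight-plated D2 PathHunter cells for 90 min at 37 C, with 57 uM final dopamine (EC100) defining full response. Beta-arrestin recruitment detected by chemiluminescent reagent, read after 1 h at ambient temperature.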
gsp agonist: agonists of gsp mutant (McCune-Albright syndrome). gsp mutant cells, cAMP HTRF, 30 min; control for the full effect not named in the record. Potency, µM (highest dose often 76.9 µM), for inactives: at the top dose activation (cAMP increase), usual class: activators. 340,000 tested, 0.13% active. AID 624287; active = well fitted activation curve with a large enough effect; inconclusive = small, poorly fitted or top-dose-only effect, or another doubt; inactive = no such curve, though single readings can be large or run the other way; cell line not stated here;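 further: phosphodiesterase inhibitor Ro 20-1724 added with compounds to block cAMP breakdown; potency means the concentration at half of the fitted maximal effect; nearly all actives have a fitted effect of over 60% in size; about a fifth of the inactives were tested at one dose only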
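Cells stably selected in G418 were plated at 2000/well, grown 16-24 hr, then given compounds in DMSO with the PDE inhibitor […] (300 uM solution added) for 30 min at 37C; cAMP was read by HTRF.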
gsp antagonist: gsp mutant antagonism | gsp-mutant cells, cAMP HTRF, 30 min; control for the full effect not named in the record | Potency, µM (top dose mostly 76.9 µM), for the others: top-dose activity change, negative = inhibition, actives largely listed as inhibitors | 340,000 tested, 0.4% active | AID 624288; active = falling curve of any shape with a large fitted effect; inconclusive = falling curve, mostly with a smaller effect; inactive = flat or rising curve; cell line not stated here;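 further: intracellular cAMP measured with PDE inhibitor Ro 20-1724 present during compound exposure; potency means the concentration at half of the fitted maximal effect; on the % scale 0 is the no-effect control and ±100 the full control effect; nearly all actives have a fitted effect of over 65% in size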
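Measurement of cellular cAMP by homogeneous time-resolved fluorescence following a 30 min compound exposure at 37C. The PDE inhibitor […] was present throughout; the assay buffer was DPBS with 0.05% BSA and 0.005% Tween 20.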
PINK1 modulator: modulators of PINK1 expression; PINK1 immunofluorescence, high-content cytometry, 24 h; Potency, µM (titrated, usually from 76.6 µM), for inactives: at the top dose activation (PINK1 increase), usual class: activators; 410,000 tested, 0.2% active; AID 624263; active = well fitted activation curve with a large enough effect; inconclusive = small, poorly fitted or top-dose-only effect; inactive = flat fitted curve, though single readings scatter; cell line not stated here;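 further: potency means the concentration at half of the fitted maximal effect; % of control where 0% means no effect; nearly all actives have a fitted effect of over 65% in size; a mitochondrial uncoupler was the plate control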
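Measures PINK1 amount and localization on or inside mitochondria by immunofluorescence. Stable cells get compounds at 5 concentrations for 24 hours before fixation and staining; CCCP controls included.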
Menin-MLL FL inh: inhibitors of human menin-MLL interaction, wild-type MLL peptide. 290,000 tested, under 10 active. FP activity change, % at 61.4 µM. Fluorescence polarization, fluorescein-MLL peptide displacement from menin. AID 1766; inconclusive = falling polarisation curve, or a change in total fluorescence; inactive = total fluorescence flat and polarisation flat or rising; no compound was filed as active; the % refers to the polarisation; negative = inhibition;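 further: % of control where 0% means no effect; inhibitors lower the polarisation; unlabelled MLL peptide was the positive control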
Active calls of the source: *; ? = inconclusive; . = not tested or not shown; & = joins results of further samples; [ ] = remark or other dose.

Start of the data: the first 8 records as a preview:
(1) CCC(=O)Nc1ccc(N2CCN(C(=O)c3ccccc3C)CC2)cc1
(2) COc1cc(N2CCCC2)ccc1C=O
(3) COc1ccc(OCC(=O)NNC(=O)Cc2coc3cc(OC)ccc23)cc1
(4) CC(=O)Nc1ccc(S(=O)(=O)N(C)CC(=O)OCC(=O)c2ccc[nH]2)cc1
(5) COc1ccc(/C=C/c2nnc(NC(=O)CSc3ccc(C)cc3)s2)cc1
(6) CC(CCc1ccccc1)NC(=O)c1ccc2nc(N3CCOCC3)sc2c1 (centres undefined)
(7) Cc1cccc(NC(=O)c2ccc(S(=O)(=O)N(C)C)cc2)c1
(8) CN(C)C(=O)c1noc2cc([N+](=O)[O-])ccc12
entry no.,1,2,3,4,5,6,7,8
Sfp inh,6%,4%,10%,.,-2%,12%,13%,4%
ClpP mod,0.5%,-1.6%,-4.0%,-0.6%,4.7%,.,-2.4%,-7.8%
D2 agonist,-1.7,-1.0,6.5,-2.6,-2.7,5.1,-5.6,7.4
gsp agonist,21%,20%[15.4 µM],16%[15.4 µM],-8%,-22%[15.4 µM],-16%[15.4 µM],-33%[inhibitor],?
gsp antagonist,-3%,-1%,3%,-1%,13%,.,-2%,6%
PINK1 modulator,8.7%[38.3 µM],0.5%,0.3%,-3.5%,1.0%&6.5%,9.2%,-0.5%,-1.9%
Menin-MLL FL inh,3.2,2.0,0.3,.,?,-1.6,-5.0,3.0

Main list, from the start:
(1) CCC(=O)Nc1ccc(N2CCN(C(=O)c3ccccc3C)CC2)cc1
(2) COc1cc(N2CCCC2)ccc1C=O
(3) COc1ccc(OCC(=O)NNC(=O)Cc2coc3cc(OC)ccc23)cc1
(4) CC(=O)Nc1ccc(S(=O)(=O)N(C)CC(=O)OCC(=O)c2ccc[nH]2)cc1
(5) COc1ccc(/C=C/c2nnc(NC(=O)CSc3ccc(C)cc3)s2)cc1
(6) CC(CCc1ccccc1)NC(=O)c1ccc2nc(N3CCOCC3)sc2c1 (centres undefined)
(7) Cc1cccc(NC(=O)c2ccc(S(=O)(=O)N(C)C)cc2)c1
(8) CN(C)C(=O)c1noc2cc([N+](=O)[O-])ccc12
entry no.,1,2,3,4,5,6,7,8
Sfp inh,6%,4%,10%,.,-2%,12%,13%,4%
ClpP mod,0.5%,-1.6%,-4.0%,-0.6%,4.7%,.,-2.4%,-7.8%
D2 agonist,-1.7,-1.0,6.5,-2.6,-2.7,5.1,-5.6,7.4
gsp agonist,21%,20%[15.4 µM],16%[15.4 µM],-8%,-22%[15.4 µM],-16%[15.4 µM],-33%[inhibitor],?
gsp antagonist,-3%,-1%,3%,-1%,13%,.,-2%,6%
PINK1 modulator,8.7%[38.3 µM],0.5%,0.3%,-3.5%,1.0%&6.5%,9.2%,-0.5%,-1.9%
Menin-MLL FL inh,3.2,2.0,0.3,.,?,-1.6,-5.0,3.0

(9) COc1ccc(/C=N/S(=O)(=O)c2ccccc2)cc1OC
(10) C[C@@H]1CN([C@@H](C)CO)C(=O)c2cc(-c3cccnc3)cnc2O[C@H]1CN(C)C(=O)c1cccc(F)c1
(11) COc1cc(/C=C/C(=O)c2ccc([N+](=O)[O-])o2)ccc1O
(12) CC1(C)CC(=O)N(c2cc(Cl)cc(Cl)c2)C(=O)C1
(13) CCOC(=O)C1CCCN(C(=O)Cn2ncc3c([nH]c4ccccc43)c2=O)C1 (centres undefined)
(14) CC1CCCCC1NC(=O)COC(=O)c1ccc2c(c1)OCCO2 (centres undefined)
(15) Cc1ccc([C@@H]2[C@@H]3C(=O)N(C)C(=O)[C@@H]3[C@]3(C)C(=O)N(CCO)CC(=O)N23)o1
(16) Cc1onc(-c2ccccc2Cl)c1C(=O)Nc1cccc(-c2cn3cccnc3n2)c1
entry no.,9,10,11,12,13,14,15,16
Sfp inh,11%,.,.,9%,4%,.,3%,16%
ClpP mod,.,1.6%,0.4%,.,3.9%&-28%,-9.4%,-0.8%,1.9%
D2 agonist,0.7,-8.9,10,-6.3,6.5,-5.9,-2.7,1.2
gsp agonist,5%[15.4 µM],21%,.,23%,?,-6%,.,7%
gsp antagonist,.,.,7%,8%,2%,7%,8%,-22%
PINK1 modulator,-0.5%,-0.3%,1.6%,7.2%,3.2%&10%,0.4%,0.4%,4.0%[38.3 µM]
Menin-MLL FL inh,0.2,.,.,4.8,-0.3,.,-5.0,9.5

(17) Cc1cc(C)cc(N2CC(C(=O)Nc3cc(C)on3)CC2=O)c1 (centres undefined)
(18) O=C(CCN1C(=O)C2C3C=CC(C3)C2C1=O)N1CCCCC1 (centres undefined)
(19) O=C(CSc1nn(-c2ccccc2)c(=S)s1)Nc1ncccn1
(20) O=C(O)CCCC(=O)OCc1c(-c2ccccc2)ncc2ccccc12
(21) ClCCn1cnc2c(SCc3ccccc3)ncnc21
(22) O=C(c1ccc2c(=O)n3c(nc2c1)CCCCC3)N1CCN(c2ccccc2F)CC1
(23) N#C/C(=C/c1ccc(-c2ccc(C(=O)O)c(Cl)c2)o1)C(=O)NCC1CCCO1 (centres undefined)
(24) CCCN(CC(=O)Nc1ccccc1C)C(=O)c1cccc(-n2cnnn2)c1
entry no.,17,18,19,20,21,22,23,24
Sfp inh,3%,20%,-2%,.,.,1%,1%,15%
ClpP mod,.,-1.5%,0.8%,-8.7%,.,-2.6%,-5.9%,0.5%
D2 agonist,0.3,-0.5,5.1,-3.1,-2.1,-5.6,-1.1,-0.5
gsp agonist,17%,-6%[15.4 µM],-17%,.,-8%,19%,?,-28%
gsp antagonist,2%,10%,4%,-20%,5%,-5%,-3%,6%
PINK1 modulator,2.3%,-0.5%,-0.3%,0.7%,1.7%,0.0%,1.7%,-0.2%
Menin-MLL FL inh,-5.1,3.0,4.4,.,.,-6.6,.,1.3

(25) COCCNC(=O)c1cc(-c2ccccc2)n(Cc2cc(C)no2)n1
(26) CC1=NN(c2ccccc2)C(=O)/C1=C/c1ccc(Cl)cc1
(27) Cc1cccn2c(=O)nc(SCC(=O)c3ccc(Cl)cc3)nc12
(28) CCN(CC)CCOC(=O)C(c1ccccc1)C1CCCCC1 (centres undefined)
(29) COC(=O)c1ccccc1NC(=O)CNC(=O)c1ccco1
(30) CC(C)(C)c1ccc(/C=C(\C#N)C(=O)Nc2ccccn2)cc1
(31) CCOc1ccccc1NC(=O)COC(=O)c1cc[n+]([O-])cc1
(32) CC1CCc2nn(CC(=O)NCc3ccco3)cc2C1 (centres undefined)
entry no.,25,26,27,28,29,30,31,32
Sfp inh,.,-23%,.,17%,16%,?,-2%,20%
ClpP mod,-1.5%,0.2%,.,0.7%,?,3.4%,.,-3.2%
D2 agonist,0.1,5.3,-5.6,-4.6,1.0,-1.8,-1.4,-7.4
gsp agonist,.,-15%,38%[15.4 µM],.,0%,-29%,0%,-2%
gsp antagonist,-7%,-28%,-7%,4%,-1%,10%,6%,-5%
PINK1 modulator,0.5%,4.3%,-3.0%,6.0%,-3.2%,0.1%,0.8%,4.7%
Menin-MLL FL inh,.,0.3,.,1.9,-1.2,4.8,-1.0,4.1

(33) COc1ccc(C)cc1NC(=O)N1CCCc2ccccc21
(34) COc1ccc(/C=C2\SC(=S)N(CCC(=O)NC3CCCC3)C2=O)cc1OC
(35) C=CCn1c(CNC(=O)c2ccco2)nnc1SCC(=O)c1ccc(F)cc1
(36) CCc1ccc(C(=O)Nc2cccc(-c3nn[nH]n3)c2)s1
(37) COc1cccc(-c2ccc3c(c2)N(Cc2cccc(F)c2)C(=O)C(C)S3)c1 (centres undefined)
(38) Cc1ccc(N2CCN(C(=O)c3nn(C)c4c3CS(=O)(=O)c3ccccc3-4)CC2C)cc1 (centres undefined)
(39) O=C(/C=C/c1ccco1)N1CCN(S(=O)(=O)c2cccs2)CC1
(40) COc1ccccc1-n1c(SCC(=O)Nc2ccccc2F)nc2[nH]ncc2c1=O
entry no.,33,34,35,36,37,38,39,40
Sfp inh,?,?,12%,14%,.,1%,16µM*,6%
ClpP mod,.,.,.,-0.2%,-1.3%,0.1%&1.9%,.,-0.3%
D2 agonist,-6.0,-3.3,-1.3,-0.8,-4.9,2.1,0.1,-2.6
gsp agonist,-1%,3%,17%,7%,.,-11%,-14%[15.4 µM],-41%[inhibitor]
gsp antagonist,-16%,13%,-1%,-1%,.,-28%,1%,2%
PINK1 modulator,-0.6%,14%,1.3%,0.2%,-0.7%,2.2%&-1.1%,-0.9%,4.3%[38.3 µM]
Menin-MLL FL inh,1.8,6.1,-5.8,-1.0,.,-4.0,1.0,-2.0

(41) COc1ccc(/C=N\NC(=O)c2ccc(-c3ccccc3)cc2)c(OC)c1OC
(42) CCOC(=O)c1c(NC(=S)NC)sc2c1CCCC2
(43) CN1C(C)(C)CC(NC(=O)CCC(=O)NC2CC(C)(C)N(C)C(C)(C)C2)CC1(C)C
(44) O=C(c1ccncc1)N1CCC2(CCN(Cc3ccncc3)CC2)CC1
(45) C/C(=N\NC(=O)CNC(=O)c1ccc(F)cc1)c1ccco1
(46) Cc1ccc(C(=O)N/C(=C/c2ccc(-c3cc(C(F)(F)F)ccc3Cl)o2)C(=O)NCc2cccnc2)cc1
(47) Cc1cc2nc(-c3ccc(SCC(=O)Nc4ccc(S(=O)(=O)N5CCCC5)cc4)nc3)[nH]c2cc1C
entry no.,41,42,43,44,45,46,47
Sfp inh,5%,7%,.,18%,7%,13%,-18%
ClpP mod,335%,-4.7%,-5.2%,.,-0.7%,-24%,-4.6%
D2 agonist,-0.7,-1.4,-8.5,.,-4.5,-0.3,1.6
gsp agonist,8%[15.4 µM],-8%,6%,.,-24%,-30%,-2%[15.4 µM]
gsp antagonist,5%,-9%,8%,.,?,-9%,-21%
PINK1 modulator,4.2%,-0.1%,-0.3%,-0.3%,0.9%,-2.0%,4.4%
Menin-MLL FL inh,.,-1.0,.,-9.3,.,5.3,12
